HNF4A DNA FP = change in binding of human HNF4 alpha to DNA; 0.3% of 360,000 active; activity change, % at 10 µM; HNF4a-FITC DNA binding, fluorescence polarization, 1 h; in the data active = activity change above about 30%, passing the limit was not always enough;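 also: controls were the assay level and a saturating level of protein; the project sought stronger binding though the title names inhibitors; some compounds called inactive have numbers as strong as hits; positive values seem to mean higher polarization but the record does not say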
Target sequence (P41235 whole entry, looked up): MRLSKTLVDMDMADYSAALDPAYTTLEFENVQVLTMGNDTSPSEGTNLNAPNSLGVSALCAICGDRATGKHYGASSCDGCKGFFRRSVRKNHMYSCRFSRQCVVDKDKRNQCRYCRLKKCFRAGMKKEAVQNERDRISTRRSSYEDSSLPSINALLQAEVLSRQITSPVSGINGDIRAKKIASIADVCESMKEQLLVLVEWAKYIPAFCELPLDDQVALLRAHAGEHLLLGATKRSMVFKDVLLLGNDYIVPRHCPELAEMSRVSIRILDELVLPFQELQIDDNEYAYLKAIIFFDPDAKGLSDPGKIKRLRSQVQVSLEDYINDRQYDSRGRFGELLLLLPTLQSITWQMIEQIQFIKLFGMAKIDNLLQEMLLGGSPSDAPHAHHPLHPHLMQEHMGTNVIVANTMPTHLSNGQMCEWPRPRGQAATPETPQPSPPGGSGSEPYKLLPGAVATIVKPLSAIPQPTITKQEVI
FGF22 binding = binders of recombinant human FGF22 by thermal shift; Q9HCT0; SYPRO orange fluorescence; percent of sucrose octasulfate shift, DMSO zero; calls only at 9.99 µM; AID 651658; 1.5% of 340,000 active;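 active = melting point raised past a set limit in the mean and every replicate; three in four hits are not shown here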
Target sequence (Q9HCT0 whole entry, looked up): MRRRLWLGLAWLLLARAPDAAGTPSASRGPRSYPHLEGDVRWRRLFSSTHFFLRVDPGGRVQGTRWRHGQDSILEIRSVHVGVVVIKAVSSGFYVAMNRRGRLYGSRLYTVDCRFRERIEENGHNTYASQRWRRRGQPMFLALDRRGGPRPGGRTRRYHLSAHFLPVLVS
rRNA inh HTS = selective bacterial rRNA inhibition in E. coli; E. coli WT GFP vs humanized-ribosome RFP mutants, fluorescence, 24 h; active compounds read low; DMSO median 0, no signal -100; GFP signal change (wild-type ribosome), % (concentration not given with the values); 1.6% of 350,000 active; AID 720706;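 active = significant combined selectivity score with lowered wild-type GFP, culture density cut under 30%, mutant RFP and density less affected; inactive = any of these conditions unmet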; also: one replicate is shown; some compounds called inactive have numbers as strong as hits
Vif TR-FRET = HIV-1 Vif–A3G interaction blockers – biochemical, TR-FRET, GST-Vif 1-94, biotin-A3G peptide, dose response retest, primary screen (AID 1117319); TR-FRET GST-Vif / biotin-A3G peptide binding; higher % means a stronger effect; test concentration not given here; strong numbers were not always called active; inhibition, %; hits with a dose series show IC50 in µM; 0.57% of 260,000 active;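 active = above the screen mean plus three standard deviations and confirmed in dose response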;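 also: Vif residues 1-94 fused to GST binding biotinylated APOBEC3G peptide 110-148; 0% = full assay without inhibitor and 100% = GST in place of GST-Vif; retest series ran down from 100 µM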
Ecoli growth = E. coli growth inhibition. Escherichia coli growth, OD600, 23 h; active compounds read low. 0.21% of 330,000 active. OD600 absorbance (no concentration beside the values);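 active = OD600 absorbance below the run mean of sample wells minus 3.6 SD, in any replicate, cut at about 0.56 in these data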;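 also: stock transfer was 300 nL into about 60 µL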
MLL AF4-AF9 inh = MLL-AF4/AF9 protein interaction inhibition. P42568. AlphaScreen, biotin-AF4 peptide binding to FLAG-AF9. inhibition, % at 10 µM. 0.47% of 350,000 active;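 active = every replicate reaching a set inhibition limit, whatever the replicate mean, cut at about 25% in these data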;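 also: 0% = plate neutral control median and 100% = total signal loss; the record names both 10 and 1 µM as test concentration; the first replicate is given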
ALR H2O2 inh = blocks human ALR sulfhydryl oxidase activity; P55789; purified ALR, DTT oxidation, H2O2 HRP-luminol luminescence; inhibition, % (no concentration beside the values); 3.8% of 290,000 active;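 active = mean and each replicate at 75% or more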;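 also: stock transfer was 7.5 nL into about 7.5 µL; 0% = neutral wells and 100% = wells with inactivated enzyme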
Target sequence (P55789 whole entry, looked up): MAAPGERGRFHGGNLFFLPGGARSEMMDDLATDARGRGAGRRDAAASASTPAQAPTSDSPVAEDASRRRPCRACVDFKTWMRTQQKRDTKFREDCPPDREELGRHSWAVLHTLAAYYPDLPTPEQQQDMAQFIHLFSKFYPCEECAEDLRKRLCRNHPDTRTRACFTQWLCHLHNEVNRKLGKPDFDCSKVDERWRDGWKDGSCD
rRNA inh HTS OD600 = also measured in rRNA inh HTS; calls as there; OD600 change, %; measured here: OD600 growth;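 optical density of the mix in the first replicate; 0 = DMSO median and -100 = no signal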
rRNA inh HTS RFP = second read-out of rRNA inh HTS, no call of its own (marks repeat the call); RFP signal change, %; measured here: RFP humanized mutant strains;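 first replicate; 0 = DMSO median and -100 = no signal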
Numbers without * were called inactive; i = inactive; . = not tested or not shown; & = joins results of further samples.

SMILES	HNF4A DNA FP	FGF22 binding	rRNA inh HTS	rRNA inh HTS OD600	rRNA inh HTS RFP	Vif TR-FRET	Ecoli growth	MLL AF4-AF9 inh	ALR H2O2 inh
CCN(CC)S(=O)(=O)c1cc(OC)c(C)cc1C	5.9	i	14	2	-2.8	-4%	0.66	-0.6	0
CCC(=O)N1CC2(CN(C(=O)CN3CCOCC3)C2)c2c([nH]c3cc(OC)ccc23)[C@@H]1CO	.	i	8	22	-1.9	.	.	0.1	.
Cc1cc(C(=O)COc2ccc(-c3nnco3)cc2)c(C)n1Cc1ccccc1	3.8	.	.	.	.	20%	0.67	.	-1
COc1cc(C(=O)Nc2ccc3c(c2)OCO3)ccc1OCc1c(C)noc1C	1.1	i	-2	12	-1.9	.	0.67	3.1	-13
COc1ccc(-c2ccc3n(c2=O)C[C@H]2[C@H](CO)[C@@H](C(=O)NC4CCC4)N(S(C)(=O)=O)[C@@H]32)cc1	.	i	-1	0	-0.9	.	.	4.5	.
O=C(NCc1ccccc1)C1CCCN(S(=O)(=O)c2cccnc2)C1 (stereo not drawn)	-0.1	.	.	.	.	-1%	0.75	.	-1
Cc1noc(C)c1C(=O)N(CC(=O)Nc1ccccc1Br)Cc1ccco1	-0.3	i	7	7	2.5	.	0.69	1.5	.
CC1(C(=O)Nc2cccc(Oc3ccccc3)c2)Cc2c(-c3ccccc3)ccnc2O1 (stereo not drawn)	-1.4	i	25	44	1.2	.	.	0.3	.
CN1C(=O)c2cc(NS(=O)(=O)c3ccccc3F)ccc2OC[C@@H]2O[C@@H](CC(=O)NC3Cc4ccccc4C3)CC[C@H]21	.	i	-5	-7	-0.2	.	.	2.2	.
Cc1cc(O)ccc1NC(=O)c1ccccc1	-0.7	i	1	7	0.1	-2%	0.69	9.2	99*
Cc1cc(=O)oc2cc(NC(=O)C(CCCN=C(N)N)NC(=O)OCc3ccccc3)ccc12 (stereo not drawn)	1.9	i	5	2	-0.4	-2%	0.69	13	-6
Cc1cc(C)c(NC(=O)Cc2ccc(-n3cccc3)cc2)c(C)c1	1.8	.	.	.	.	21%	0.71	.	-9
CCOC(=O)c1c(NC(=O)Cn2nc(C(F)(F)F)cc2C)sc2c1CCC2	-2.9	i	5	9	0.9	.	0.61	-0.3	-2
O=C(N/N=C/c1ccc2c(c1)OCO2)c1cccc(NC(=O)c2ccccc2Cl)c1	1.1	i	-11	-3	4.4	.	.	2.7	-2
COc1cccc(NC(=O)C2(C)CCN2CC2CCCCC2)c1 (stereo not drawn)	-6.5	i	0	-33	-0.9	.	.	-4.1	.
Cc1cccc(-c2nnc(-c3ccc(N)cc3)o2)c1	0.9	.	.	.	.	-6%	0.69	.	-10
O=C(NC(NC1CCS(=O)(=O)C1)C(Cl)(Cl)Cl)c1cccc(Cl)c1 (stereo not drawn)	1.6	.	.	.	.	-3%	0.65	.	-9
C[C@H](CO)N1C[C@H](C)[C@@H](CN(C)C(=O)C2CCC2)Oc2cc(C#CC3CC3)ccc2S1(=O)=O	.	i	3	-14	0.1	.	.	0.4	.
COCCCC1CCN(C(=O)C2CCC(=O)N(Cc3ccccc3F)C2)CC1 (stereo not drawn)	-3.6	i	8	6	-1.4	.	0.75	-1.1	-8
CS(=O)(=O)c1ccc(Cl)c(NC(=O)CCN2C(=O)NC3(CCCC3)C2=O)c1	1.8	i	5	12	-3.1	-2%	0.63	1.0	-10

The final 2 entries of the part above come first, to join the parts.
SMILES	HNF4A DNA FP	FGF22 binding	rRNA inh HTS	rRNA inh HTS OD600	rRNA inh HTS RFP	Vif TR-FRET	Ecoli growth	MLL AF4-AF9 inh	ALR H2O2 inh
COCCCC1CCN(C(=O)C2CCC(=O)N(Cc3ccccc3F)C2)CC1 (stereo not drawn)	-3.6	i	8	6	-1.4	.	0.75	-1.1	-8
CS(=O)(=O)c1ccc(Cl)c(NC(=O)CCN2C(=O)NC3(CCCC3)C2=O)c1	1.8	i	5	12	-3.1	-2%	0.63	1.0	-10
COc1ccc(OC)c(-n2c(C)ccc2-c2ccc(S(C)(=O)=O)cc2)c1	3.9	.	.	.	.	-1%	0.77	.	.
O=C(COC(=O)c1ccc([N+](=O)[O-])s1)NCc1ccc(F)cc1	-3.4	.	.	.	.	-5%	0.69	.	-30
COc1cccc(-c2cnc3c(c2)C(=O)N([C@H](C)CO)C[C@@H](C)[C@H](CN(C)C(=O)CC2CC2)O3)c1	.	i	-3	-11	0.0	.	.	-2.1	.
C[C@H](CO)N1C[C@H](C)[C@@H](CN(C)C(=O)NC2CCCCC2)OCCCC[C@H](C)Oc2ccc(NS(=O)(=O)c3ccc(Cl)cc3)cc2C1=O	.	i	3	4	1.0	.	.	1.2	.
Cn1c(N=Nc2ccccc2)nc2ccccc21	-4.3	i	.	.	.	17%	0.69	8.7	.
CCCn1c(=O)c(F)cn(Cc2ccc(OC)c([N+](=O)[O-])c2)c1=O	2.0	.	.	.	.	-5%	0.69	.	-2
Cc1nn(-c2ccccc2)c(C)c1/C=N/NC(=O)CSc1nc2ccccc2c(=O)n1-c1ccccc1	-1.0	i	15	18	-2.0	-4%	.	0.6	1
Cc1cc(C)n2c(NC3CCCCC3)c(CC(C)C)nc2n1	108*	i	26	20	6.9	.	.	1.2	.
O=C(N=C1SC2CS(=O)(=O)CC2N1c1cccc(Cl)c1Cl)C1CC1 (stereo not drawn)	-2.1	i	8	5	1.7	.	0.65	1.2	-2
NC(=O)C1CCN(C(=O)CCC(=O)N2CCOc3ccc(Cl)cc32)CC1	3.5	i	2	2	1.1	.	0.76	6.2	3
COC(=O)c1cccc(CSC(=S)N2CCCC2)c1	-4.9	i	-5	-2	0.0	-8%	0.68	-0.8	-7
C=CCSc1nnc(NC(=O)CSc2nc(CCC)cc(=O)[nH]2)s1	3.4	.	.	.	.	3%	0.7	.	0
CCOc1ccc(C2=C/C(=C/c3cccnc3)C(=O)O2)cc1	11	.	.	.	.	-3%	0.74	.	1
CCCCOCCCNCC(=O)Nc1ccc(S(N)(=O)=O)cc1	0.6	i	2	6	-0.8	0%	0.68	-1.8	-8
COC(=O)C1(C(=O)OC)C/C=C\CN(S(=O)(=O)c2ccccc2[N+](=O)[O-])CC1	-5.4	i	.	.	.	.	.	-3.1	.
Cn1ccnc1SCC(=O)c1cccc(C(F)(F)F)c1	12	i	-1	7	1.8	-6%	0.68	4.2	24
CO[C@H]1CN(C)C(=O)c2cc(NS(=O)(=O)c3ccc(F)cc3)ccc2OC[C@@H](C)NC[C@@H]1C	.	i	4	4	-0.8	.	.	-2.2	.
Cc1ccc2cc(CN(Cc3ccc(F)cc3)Cc3nnnn3C3CCCC3)c(=O)[nH]c2c1	-1.9	i	-22	-27	32	-1%&29%	0.72	5.4	8
Cc1cc(C)n(CCC(=O)N2CCN(S(=O)(=O)c3ccc(C)c(C)c3)CC2)n1	-1.1	.	2	-1	2.5	.	0.69	-7.4	-6
CCOC(=O)c1cnc2nc(N3CCOCC3)nn2c1N	-0.7	i	2	5	0.1	-2%	0.66	-0.4	-5
CC(C)(C)c1ccc(OCCC(=O)OCC(=O)NC2CCCCC2)cc1	-3.5	i	-12	-22	0.8	-4%	0.64	-30	-10
COc1ccccc1C1CCN(Cc2cccc(C(=O)N3CCC(O)CC3)c2)CC1	-2.5	.	.	.	.	4%	0.63	.	-15
CCOC(=O)c1cnc2ccc(C(=O)OC)cc2c1NCCc1ccc(OC)c(OC)c1	0.0	.	.	.	.	.	0.69	.	-2
O=C(C(=O)N1CCC(c2ccccc2)CC1)c1cccc([N+](=O)[O-])c1	-2.9	i	-16	-10	1.3	.	.	6.3	.
CCn1cc(C(=O)NCCCOC(C)C)c2cc(OC)c(OC)cc2c1=O	-2.3	.	.	.	.	6%	0.72	.	4
COc1ccc(S(=O)(=O)Nc2ccc3c(c2)C(=O)N([C@@H](C)CO)C[C@@H](C)[C@H](CN(C)S(=O)(=O)c2ccccc2)OCCCC[C@H](C)O3)cc1	.	i	-4	3	0.6	.	.	-3.0	.
O=C(CNC(=O)c1ccccc1)Nc1ccsc1C(=O)O	-3.2	.	2	5	2.7	-11%	0.69	-1.0	3
Cc1ccc(S(=O)(=O)N2C(=O)CCC2C(=O)Nc2ccc3c(c2)OCCO3)cc1 (stereo not drawn)	8.5	.	.	.	.	-10%	0.7	.	-24
COc1cc(C(=O)N2CCN(c3cccc(C)c3C)CC2)cc(OC)c1OC	-0.2	i	-5	-15	-1.3	14%	0.7	2.3	-51
CC(=O)Nc1cc[n+](C(C)C(=O)c2ccc(Cl)cc2)cc1 (stereo not drawn)	-2.9	i	8	5	-1.0	-4%	0.66	2.2	.
O=C(NCCCCNC(=O)c1cccnc1Cl)c1cccnc1Cl	1.4	i	27	11	5.8	.	0.71	0.9	-2
COc1ccc(S(=O)(=O)N2c3ccc(F)cc3CCC2C)cc1 (stereo not drawn)	3.6	i	-28*	-18*	-4.7*	.	0.62	-1.6	31
O=S(=O)(c1cnccc1N1CCN(CCO)CC1)N1CCCC1	-0.1	i	.	.	.	3%	.	-0.2	.
CC(=NOC(=O)c1ccc(I)cc1)c1nccs1	0.5	i	3	5	-3.0	.	.	1.1	.
C[C@H](CO)N1C[C@H](C)[C@@H](CN(C)S(C)(=O)=O)Oc2c(NC(=O)C3CCOCC3)cccc2C1=O	.	i	1	6	-2.4	.	.	-1.0	.
Cc1ccc(S(=O)(=O)N2CCCOC2CNC(=O)C(=O)NCc2cccs2)cc1 (stereo not drawn)	0.6	.	.	.	.	-5%	0.68	.	4
CC(C)CNC(=S)N(CCN(C)C)Cc1cc2cc3c(cc2[nH]c1=O)OCO3	3.1	i	14	16	2.4	21%	0.68	-12	-2
C[C@H]1CN([C@@H](C)CO)C(=O)Cc2cc(NC(=O)CCN3CCOCC3)ccc2O[C@H]1CN(C)Cc1ccccc1	.	i	5	13	-2.8	.	.	1.1	.
Cc1ccc(COn2nnc3ccc(S(=O)(=O)N4CCOCC4)cc32)cc1	2.8	i	-5	-2	-0.7	0%	0.67	2.1	4
O=C(C[C@@H]1C[C@@H]2c3cc(NS(=O)(=O)c4ccc(F)cc4)ccc3O[C@@H]2[C@H](CO)O1)NCc1cccnc1	.	i	2	5	-0.8	.	.	-1.5	.
Nc1ccc(S(=O)(=O)NN=CC=Cc2ccccc2[N+](=O)[O-])cc1	-3.4	i	-8	-8	-1.0	-2%	0.66	1.9	.
COc1cc2oc(=O)cc(CN3CCCCC3)c2cc1Cl	-0.4	i	20	12	-2.4	.	.	-0.4	.
CCC(CC)C(=O)N(C)c1c(C)nc2c(OCc3ccc(Cl)cc3)cccn12	0.9	i	-27	-69	0.0	.	.	-0.9	.
Cc1cc(C)c(S(=O)(=O)N(C)CC(=O)NCCCn2ccnc2)c(C)c1	-1.8	i	0	8	-2.8	.	0.66	1.0	2
COc1ccc(-c2nnc(N)s2)cc1OC	-2.6	i	-2	6	2.5	-2%	0.68	-4.9	.
C[C@@H]1CN([C@@H](C)CO)C(=O)Cc2cc(NC(=O)Nc3ccc(C(F)(F)F)cc3)ccc2O[C@@H]1CN(C)Cc1ccccc1	.	i	2	-3	-0.6	.	.	2.5	.
COc1ccc(NC(=O)N(C)C[C@@H]2OCc3ccccc3-c3c(n(C)c4ccccc34)C(=O)N([C@H](C)CO)C[C@@H]2C)c(OC)c1	.	i	2	2	-1.2	.	.	5.2	.
OCCN1CCN(c2ncnc3sc4c(c23)CCCC4)CC1	-1.1	i	3	3	0.6	.	0.66	1.3	-15

Screening results (PubChem)

Only part of the results is shown; count on the stated rates, not on these rows.
